Screens from PubChem.
BJeLR lethal = BJeLR cell viability loss | BJeLR (HRASV12) viability, CellTiter-Glo ATP luminescence, 48 h; reference of the scale not given here | inhibition, % (concentration not given with the values) | actives 0.17% (n = 300,000) | AID 1554;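 active = replicate mean above 50%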;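 note: 50 nL library stock added to about 25 µL; numbers are from one replicate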
PrP UTR inh = suppresses PrP 5' UTR mRNA reporter expression | cell-based PrP 5' UTR mRNA reporter, plate reader | inhibition, % (no concentration beside the values) | actives 0.35% (n = 340,000) | AID 488862;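 active = every replicate at 50% or more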;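 note: 0 = median of the neutral control wells; tested in H4 reporter cells; numbers are from one replicate; inactives centre near -14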
Mtb hypoxia rep = reduces hypoxia-regulated biosensor signal in M. tuberculosis; M. tuberculosis hypoxia-regulated fluorescent reporter, fluorescence; fluorescence inhibition, % (concentration not given with the values); actives 0.1% (n = 300,000);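 active = 35 to 45% if threefold the growth effect, above 45% if 1.5-fold the growth effect; inactive = the rest, general growth blockers included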;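 note: wells of about 50 µL received 100 nL stock; 0% = vehicle wells and 100% = reference inhibitor wells; whole bacteria with a GFP reporter of the hypoxia response; strong numbers were not always called active; many hits fall short of the cut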
Sa RN4220 lethal = kills Staphylococcus aureus RN4220; S. aureus RN4220 growth, OD600, 16 h; inhibition, % (concentration not given with the values); actives 0.33% (n = 330,000); AID 1259311;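 active = z-score of -3 or lower and OD600 up to 0.18 on both plates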;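 note: plate controls were untreated cells for no effect and reference antibiotic for full effect; stock transfer was 100 nL into about 80 µL; one replicate is shown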
Autofluor counter = compound fluorescence in toxin protease inhibitor counterscreen. compound autofluorescence counterscreen, microsphere flow cytometry; hits give high values. fluorescence intensity (concentration not given with the values). actives 3.1% (n = 360,000);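 active = at least 3 SD above the mean of all compounds, about 16000 in these data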;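 note: 100 nL of 1 mM stock went into each well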
Sa ugtP lethal = growth inhibition of S. aureus ugtP deletion strain; growth inhibition, % (test concentration not listed); actives 0.54% (n = 330,000); AID 1259309; S. aureus RN4220 ugtP deletion, OD600 growth, 16 h; some inactives read as strong as hits;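 active = z-score under -3 and OD600 up to 0.15 on both plates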;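 note: plate controls were untreated wells for no effect and antibiotic for full effect; wells of about 80 µL received 100 nL stock; the first replicate is given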
Mtb hypoxia rep growth = further read-out of Mtb hypoxia rep, marked with its call; growth inhibition, %; measured here: M. tuberculosis growth (absorbance);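 0% = vehicle and 100% = reference antibiotic; read after six days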
Starred values were filed as active, the others as inactive; · = no result given.

Preview, 3 compounds:
SMILES	BJeLR lethal	PrP UTR inh	Mtb hypoxia rep	Mtb hypoxia rep growth	Sa RN4220 lethal	Autofluor counter	Sa ugtP lethal
Cc1cc(F)ccc1S(=O)(=O)Nc1ccc(O)c(Sc2ncn[nH]2)c1	3.0	-18.2	4.0	2.6	4.0	5794	11.0
NS(=O)(=O)c1cccc(NC(=O)CSc2nc3ccccc3c(=O)n2CC2CCCO2)c1 (configuration not stated)	·	-13.9	6.6	0.0	5.8	6040	10.4
O=C(COC(=O)c1ccc[n+]([O-])c1)Nc1ccc(Cl)cc1[N+](=O)[O-]	·	-8.3	-9.1	0.2	7.1	2955	0.0

Main list, previewed entries included:
SMILES	BJeLR lethal	PrP UTR inh	Mtb hypoxia rep	Mtb hypoxia rep growth	Sa RN4220 lethal	Autofluor counter	Sa ugtP lethal
Cc1cc(F)ccc1S(=O)(=O)Nc1ccc(O)c(Sc2ncn[nH]2)c1	3.0	-18.2	4.0	2.6	4.0	5794	11.0
NS(=O)(=O)c1cccc(NC(=O)CSc2nc3ccccc3c(=O)n2CC2CCCO2)c1 (configuration not stated)	·	-13.9	6.6	0.0	5.8	6040	10.4
O=C(COC(=O)c1ccc[n+]([O-])c1)Nc1ccc(Cl)cc1[N+](=O)[O-]	·	-8.3	-9.1	0.2	7.1	2955	0.0
N#CCC(=O)Nc1ccc(C(=O)Nc2cccnc2)cc1	-1.6	-16.2	4.4	-2.6	1.3	4760	3.7
Oc1ccc2oc3c(c2c1/C=N/n1cnnc1)CCCC3	-7.1	-3.9	·	·	·	21898*	·
Cc1nn2c(=O)c(NC(=O)c3ccc(Cl)cc3)cnc2s1	-5.4	-12.3	3.8	-0.8	7.7	3312	2.6
Cc1cccc(NC(=O)CN(C)C(C)C(=O)Nc2ccc(S(=O)(=O)N3CCCC3)cc2)c1C (configuration not stated)	·	-19.2	-6.4	0.0	6.3	·	7.9
CC(=O)C[C@H]1c2ccccc2S(=O)(=O)N1C1CCCCC1	-0.1	-5.0	·	·	·	4240	·
Cc1c(NC(=O)C(C)Sc2ccc3ccccc3n2)c(=O)n(-c2ccccc2)n1C (configuration not stated)	-2.1	-9.8	·	·	0.9	2353	7.1
CN(Cc1cn(Cc2ccccc2)nc1-c1ccc2c(c1)OCO2)Cc1nccn1C	-2.8	-13.8	-0.2	5.9	-2.2	3184	0.7
Cc1nn(C)c(C)c1CN(C)C(=O)C1c2ccccc2Oc2ccccc21	-18.6	-10.2	7.6	7.2	7.8	3651	-3.1
COc1ccc(OC)c(-n2nnnc2SCC(=O)NCc2ccc3c(c2)OCO3)c1	-6.8	-9.9	15.3	3.2	6.2	12696	11.7
Cc1cccc(Cn2nc(C)cc2NC(=O)CCCn2ccc([N+](=O)[O-])n2)c1	-1.3	-17.0	14.4	5.2	7.3	3140	3.1
Cn1ncc(C#N)c1NC(=O)C1CC(c2ccccc2Cl)=NO1 (configuration not stated)	-5.6	·	3.2	-2.2	5.9	·	1.6
COc1ccc(C(O)Cn2c(=N)n(CCCN(C)C)c3ccccc32)cc1 (configuration not stated)	1.2	7.7	·	·	0.8	3980	9.6
CCCC(=O)Nc1nnc(SCC)s1	-14.0	-3.1	2.3	2.9	7.4	2516	7.9
CC1=NN(c2ccccc2)C(=O)/C1=C\C=C1/N(C)c2ccccc2C1(C)C	0.6	-7.4	·	·	7.4	2726	-6.4
Cc1ccn2c(=O)nc(SCC(=O)N3CCCC3)nc2c1	-2.7	-4.3	8.2	-3.9	2.8	6896	2.8
Cc1c(C=O)c2ccccc2n1Cc1ccc([N+](=O)[O-])cc1	7.9	-13.5	3.9	9.2	-1.5	1946	-1.1
COc1ccc(CCNC(=O)c2cnc3ccccn3c2=O)cc1	1.0	-17.2	7.0	3.8	-10.0	5634	-0.4
COc1cccc(CNC(=O)CN2C(=O)CSc3ccc(S(=O)(=O)N4CCCC4)cc32)c1	1.7	-3.3	0.9	2.4	4.9	4734	-2.3
COc1cccc(CN2CCN(C(=O)c3cccc4ccccc34)CC2)c1	-1.8	-12.7	21.7	9.9	5.4	3825	8.0
COc1cc(NC(=O)C2CCCN(c3ncnc4c3nc3n4CCCCC3)C2)cc(OC)c1OC (configuration not stated)	5.4	-9.6	4.5	0.6	7.7	4094	2.9
COc1ccc(-c2ncnc(C(F)(F)F)c2-c2csc(C)n2)c(O)c1	-1.2	-12.7	-1.0	8.0	2.4	4252	10.6
Nc1ccc(Br)cc1Br	8.6	-13.2	6.2	0.2	-0.4	3651	-0.3
Cc1ccc(Cl)c(OCC(=O)NCc2ccco2)c1	3.5	-23.8	-0.3	1.4	4.9	21508*	-1.7
COc1ccc(N2C(=O)C(CC(N)=O)N(NC(=O)CCc3ccccc3)C2=O)cc1 (configuration not stated)	-5.6	8.9	1.2	3.9	8.8	4403	1.7
COc1cc(C#Cc2c(-c3cncn3C)n(C)c3ccc(Br)cc23)cc(OC)c1	·	-7.6	-2.5	9.9	99.3*	4775	98.7*
CCCOc1ccc(-c2csc(N)n2)cc1[N+](=O)[O-]	-4.2	-75.5	2.6	6.5	7.4	2250	-3.6
COC(=O)c1cnn(-c2ccccc2)c1C=NNC(=S)Nc1ccc(Cl)cc1	·	·	-10.4	-3.6	-0.7	·	-4.7
CCC(=NCCCn1ccnc1)c1c(O)n(-c2ccccc2)c(=O)[nH]c1=O	-6.7	-17.2	-1.1	-6.9	3.9	4102	4.7
COc1ccc(Cl)cc1NC(=O)C(C)Sc1nnc(C2CC2)n1C1CC1 (configuration not stated)	·	-5.7	-4.6	-1.7	1.7	3620	-2.1
CN1CCN(c2ccc(CNS(=O)(=O)c3ccccc3)cc2)CC1	-8.1	-20.8	-2.3	10.9	-1.5	4445	-0.1
C=CCNC(=O)c1onc(CSc2ccccc2)c1C(=O)NCC=C	17.9	13.4	4.6	13.3	0.6	2920	-3.7
COc1ccc(NC(=O)CN2C(=O)C(C)SC(C)C2=O)c(OC)c1 (configuration not stated)	-4.0	-15.3	5.9	6.0	5.8	2261	9.7
O=C1Cc2ccccc2C(=O)N1Cc1ccccc1	·	-21.3	·	·	0.3	3346	1.7
O=C(CCCC(=O)n1cnc2ccccc21)n1cnc2ccccc21	-2.1	-1.5	5.1	-2.3	7.5	3428	3.3
COc1ccc2nc(C)cc(Nc3ccc(N4CCN(C)CC4)cc3)c2c1	21.1	-3.3	16.7	14.6	1.1	3277	1.3
CCCn1c2ccccc2c2cnn(CC(=O)N(CC)CC)c(=O)c21	-7.5	-19.5	-3.5	-9.7	2.5	4020	6.6
Cc1cccc(OCCSc2nc(N)cc(N)n2)c1	6.1	-22.7	13.9	-0.3	7.0	5283	12.2
Cc1cc(/C=C2\SC(=O)NC2=O)c(C)n1-c1ccc(N(C)C)cc1	0.0	-4.9	0.5	-1.5	1.8	3030	0.3
CC1(C)CC(=O)c2cc(OCC(=O)NCC3CCCO3)ccc2O1 (configuration not stated)	-4.3	-10.3	4.9	5.9	-1.4	9941	6.6
COCCNC(=O)c1cnn2c(C(F)F)cc(-c3ccc(C)cc3)nc12	-6.6	-42.7	-2.7	-1.0	2.7	2567	7.2
O=C(CSc1ccccn1)Nc1ccc2ccccc2c1	-12.2	·	-0.3	-5.2	6.5	·	13.1
O=C(OCC(=O)N1CCN(C(=O)c2ccco2)CC1)c1cc(=O)c2ccccc2o1	3.4	0.5	·	·	1.5	4195	6.1
CC(C)(C)C(=O)NC(=S)NCc1ccccc1	-19.1	-4.3	13.9	1.5	7.0	6326	7.9
NCCCCCNC(=O)c1nc[nH]c1C(=O)NCC(=O)OCc1ccccc1	·	-14.1	8.1	13.9	2.8	3402	3.0
COc1ccc(CN2CCN(c3ccccc3)CC2)c(C)c1C	2.5	-2.9	-7.5	0.5	0.3	23743*	17.8
COc1ccc(C(=O)CSc2n[nH]c(=O)[nH]c2=O)cc1	2.5	-7.2	4.8	5.5	3.2	4384	2.2
Cc1ccc(C2=CSC3=NS(=O)(=O)CCN23)cc1C	-4.7	5.9	-10.0	3.4	-2.4	10054	-0.6
Cc1ccc(-n2nnnc2CNC(=O)C2CC(=O)N(c3ccccc3)C2)cc1C (configuration not stated)	-3.7	-21.3	2.0	-5.0	2.6	5422	1.4
CN(C)C(CNS(=O)(=O)c1ccc(Br)cc1)c1cccnc1 (configuration not stated)	-12.1	-21.7	11.6	7.3	6.0	4094	0.7
Cc1ccc(Sc2c(C)nn(C(=O)C3CC3)c2C)cc1	-4.7	-31.6	13.6	1.0	11.2	7306	38.1
CC(C)(C)NCC1(CO)SC(N)=NC1=O (configuration not stated)	-1.7	-16.4	17.4	18.6	1.3	8428	-0.8
CC(C)NS(=O)(=O)c1ccc(CCC(=O)N2CCCC2)cc1	-6.9	-3.4	5.9	-1.0	3.0	3326	3.6
CC(C)OCCCNCc1cccs1	-1.9	-19.1	2.7	-3.2	5.0	2727	-4.8
CN(C)c1ccc(-c2cc([C@H]3[C@@H]4C=CCC[C@@]4(C)C(=O)N3Cc3ccccc3)ccc2F)cc1	-8.4	-3.3	·	·	·	4108	·
CCOC(=O)C1=NS(=O)(=O)NC(C)=C1	·	-20.4	-6.8	-4.5	-2.9	2998	-1.6
O=C(NN=Cc1cccs1)c1n[nH]c2c1CCCC2	·	·	-8.0	3.1	3.1	·	5.5
CCN(CC)CCCNC(=O)C1c2cc(OC)c(OC)cc2C(=O)N(C)C1c1cccnc1 (configuration not stated)	-39.3	-2.2	-0.5	5.0	2.7	4310	6.3

Next section:
SMILES	BJeLR lethal	PrP UTR inh	Mtb hypoxia rep	Mtb hypoxia rep growth	Sa RN4220 lethal	Autofluor counter	Sa ugtP lethal
O=C(c1cnc(N2CCN(c3ccccn3)CC2)c2ccccc12)N1CCN(c2cccc(Cl)c2)CC1	3.2	-0.6	-6.8	10.5	30.0	4605	6.9
O=S1(=O)CC2N=C(N(Cc3c(F)cccc3Cl)c3ccccc3F)SC2C1 (configuration not stated)	2.1	-9.8	3.7	-3.5	7.9	2560	-3.6
COc1cc2c(cc1NC(=O)c1cccc(Br)c1)CCCC2	-6.0	-1.2	·	·	-7.7	4900	14.0
CCCCc1nnc(NC(=O)C(C)Sc2nc(C)cc(=O)[nH]2)s1 (configuration not stated)	9.6	-8.4	-0.4	0.0	6.2	10596	0.3
C#CC[N+](C)(C)CCCCCCCCCC	-0.9	-12.3	2.4	6.1	1.4	2527	92.7*
O=C(C[n+]1ccc2ccccc2c1)c1ccccc1	-2.6	-12.4	16.5	5.4	6.5	4823	8.4
COc1cc(/C=C/c2[nH]c(=O)[nH]c(=O)c2[N+](=O)[O-])ccc1OCCC(C)C	-11.4	-8.3	9.0	11.9	3.0	3437	2.4
CCN(CC)S(=O)(=O)c1ccc(C(=O)Nc2ccc(Cc3ccncc3)cc2)cc1	10.0	-16.8	14.7	11.6	9.4	3431	-3.8
Cc1cc(C)c(Cn2c(=O)n(CCCC(=O)NCc3ccco3)c(=O)c3sccc32)c(C)c1	-3.2	3.7	-2.9	2.6	-0.1	3624	-3.5
CCOC(=O)C1=C(C)NC(=O)NC1c1cn(-c2ccccc2)nc1-c1cccs1 (configuration not stated)	1.1	-4.0	-2.3	4.1	3.6	5987	-2.5
CCOCCCNS(=O)(=O)c1ccc(NC(=O)c2ccc(OC)c([N+](=O)[O-])c2)cc1	2.0	8.6	8.7	12.3	3.1	4876	2.2
Cc1cc(S(=O)(=O)NC2CCCC2)ccc1-n1cnnn1	3.6	-17.2	6.1	-7.3	0.6	3990	8.8
Cc1c(C)c2c(OCC(=O)Nc3ccc(CCO)cc3)cc3c(c2oc1=O)CCC(C)(C)O3	-2.3	-32.6	·	·	9.0	4186	-8.3
COc1ccccc1NC(=O)C1CCCN(S(=O)(=O)c2ccc(-n3cnnn3)cc2)C1 (configuration not stated)	3.1	-5.5	4.1	6.1	5.5	5002	5.0
CCOC(=S)SCC(=O)Nc1nccs1	-16.6	-30.7	1.6	4.8	13.7	4404	5.4

By substructure: those above containing bromine.
SMILES	BJeLR lethal	PrP UTR inh	Mtb hypoxia rep	Mtb hypoxia rep growth	Sa RN4220 lethal	Autofluor counter	Sa ugtP lethal
Nc1ccc(Br)cc1Br	8.6	-13.2	6.2	0.2	-0.4	3651	-0.3
COc1cc(C#Cc2c(-c3cncn3C)n(C)c3ccc(Br)cc23)cc(OC)c1	·	-7.6	-2.5	9.9	99.3*	4775	98.7*
CN(C)C(CNS(=O)(=O)c1ccc(Br)cc1)c1cccnc1 (configuration not stated)	-12.1	-21.7	11.6	7.3	6.0	4094	0.7
COc1cc2c(cc1NC(=O)c1cccc(Br)c1)CCCC2	-6.0	-1.2	·	·	-7.7	4900	14.0
